Screening data deposited in PubChem by several laboratories.
Bead autofluor = compound fluorescence in toxin protease inhibitor counterscreen | compound autofluorescence counterscreen, microsphere flow cytometry; active compounds read high | fluorescence intensity (no concentration beside the values) | actives 3.1% (n = 360,000) | AID 624483;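 active = at least 3 SD above the mean of all compounds, about 16000 in these data; inconclusive = too few beads counted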;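 also: 100 nL of 1 mM stock went into each well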
Sa RN4220 lethal = growth inhibition of S. aureus RN4220, primary screen, OD600; 16 h; inhibition, % (concentration not given with the values); actives 0.33% (n = 330,000);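 active = z-score of -3 or lower and OD600 up to 0.18 on both plates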;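 also: plate controls were untreated cells for no effect and reference antibiotic for full effect; stock transfer was 100 nL into about 80 µL; one replicate is shown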
BJeLR lethal = MLPCN primary cell-based screen for lethality selective to Ras in HRASV12 cells | BJeLR (HRASV12) viability, CellTiter-Glo ATP luminescence, 48 h; reference of the scale not given here | inhibition, % (concentration not given with the values) | actives 0.17% (n = 300,000);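 active = replicate mean above 50%; inconclusive = above 50% but judged a plate artefact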;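 also: 50 nL library stock added to about 25 µL; numbers are from one replicate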
Mtb hypoxia rep = PubChem AID 1159583; M. tuberculosis hypoxia-regulated fluorescent reporter, fluorescence; fluorescence inhibition, % (no concentration beside the values); actives 0.1% (n = 300,000);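 active = 35 to 45% if threefold the growth effect, above 45% if 1.5-fold the growth effect; inactive = the rest, general growth blockers included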;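 also: wells of about 50 µL received 100 nL stock; 0% = vehicle wells and 100% = reference inhibitor wells; whole bacteria with a GFP reporter of the hypoxia response; strong numbers were not always called active; many hits fall short of the cut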
PrP 5UTR inh = inhibition of PrP 5' UTR reporter expression. cell-based PrP 5' UTR mRNA reporter, plate reader. inhibition, % (no concentration beside the values). actives 0.35% (n = 340,000). AID 488862, 2010;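 active = every replicate at 50% or more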;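 also: 0 = median of the neutral control wells; tested in H4 reporter cells; numbers are from one replicate; inactives centre near -14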
ugtP null kill = growth inhibition of ugtP-null S. aureus, primary screen, RN4220 ugtP deletion, OD600. actives 0.54% (n = 330,000). 16 h; some inactives read as strong as hits. AID 1259309, 2017. growth inhibition, % (test concentration not listed);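 active = z-score under -3 and OD600 up to 0.15 on both plates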;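 also: plate controls were untreated wells for no effect and antibiotic for full effect; wells of about 80 µL received 100 nL stock; the first replicate is given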
Mtb hypoxia rep growth = second read-out of Mtb hypoxia rep, no call of its own (marks repeat the call); growth inhibition, %; measured here: M. tuberculosis growth (absorbance);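 0% = vehicle and 100% = reference antibiotic; read after six days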
Numbers without * were called inactive; ? = inconclusive; . = not tested or not shown; & = joins results of further samples.

#	Molecule	Bead autofluor	Sa RN4220 lethal	BJeLR lethal	Mtb hypoxia rep	Mtb hypoxia rep growth	PrP 5UTR inh	ugtP null kill
1	O=C(Nc1ccc(N2CCN(C(=O)c3ccccc3)CC2)c(Cl)c1)c1ccc(Br)o1	23206*	1.0	10	-4	10	-11	-3
2	CC1CC2(CCCC2)N(C(=O)c2ccccc2)Cc2ccccc21 (stereo unspecified)	2745	2.4	-2	12	8	-16	8
3	CN1c2ccccc2C(=O)NC1c1ccc([N+](=O)[O-])s1 (stereo unspecified)	4518	.	-4	.	.	-4	.
4	Cc1c(Cl)cccc1NC(=O)NCCCN1CCCC1=O	5781	2.9	4	1	-2	-12	5
5	CCOC(=O)COc1c(/C=N\O)cc(Cl)cc1OC	2601	.	6	.	.	-19	.
6	CCN(C(=O)COC(=O)CN1C(=O)c2ccccc2C1=O)c1ccccc1	4011	6.1	.	19	5	-16	8
7	Cc1nc2ccccc2c(=O)n1-c1ccc(Cl)c(Cl)c1	3721	1.9	-20	9	5	-27	4
8	Cc1ccc(OCC(=O)N/N=C/c2cccn2C)cc1C	4339	.	3	.	.	-5	.
9	COc1ccc(Cl)c(OC)c1C(=O)NC(=O)Nc1nc(C)nc(C)n1	5430	4.1	-10	6	-3	-15	3
10	COC(=O)c1c(N2C(=O)CC(Sc3ccccc3C(=O)O)C2=O)sc2c1CCCC2 (stereo unspecified)	4249	9.0	7	0	8	-12	11
11	O=C(COC(=O)CNC(=O)c1ccccc1Cl)NC1CCCC1	3787	-2.6	.	-8	-1	-7	-4
12	O=C(c1ccc2c(c1)OCO2)N1CCN(c2ccc(C(F)(F)F)cn2)CC1	2043	4.3	-6	9	-5	-16	-4
13	COC(=O)C1=C(C)N(Cc2ccccc2)C(=NCCCCO)NC1c1cccc(C(F)(F)F)c1 (stereo unspecified)	.	-0.7	.	-10	1	.	-23
14	Cc1ccc(N(C)C2=NC(=O)CS2)cc1Cl	4024	4.7	-6	18	6	-13	8
15	COc1ccc(OC)c(C(c2nnnn2C2CCCC2)N2CCN(c3ccc(F)cc3)CC2)c1 (stereo unspecified)	2258	-1.1	-4	.	.	-22	3
16	Nn1c(CN2CCCCC2)nc2ccccc2c1=O	7992	4.8	-10	10	5	-6	6
17	CNC(=O)OCc1n(C)cc[n+]1C	2279	2.9	-5	6	2	-12	5
18	COc1ccc(C(=O)Cc2cc3cccc(OC)c3oc2=O)cc1	3292	3.1	-6	-11	1	-26	7
19	Cc1cc(F)ccc1NCc1ccc([N+](=O)[O-])cc1	4346	4.5	-5	15	1	-14	-8
20	Cc1ccccc1N1CCN(Cc2nc(Cc3ccccc3)no2)CC1	3705	9.2	12	-4	-3	-20	2
21	O=C1Nc2ccc(Br)cc2C1(O)c1ccc(F)cc1 (stereo unspecified)	3685	0.7	2	8	5	-24	3
22	COc1ccc(-c2cc3nnc(-c4ccccc4)nc3s2)cc1	3312	.	7	.	.	0	.
23	Cc1ccc(/C(O)=C2/C(=O)C(=O)N(CCN3CCOCC3)C2c2ccccn2)cc1 (stereo unspecified)	3976	-0.6	-3	.	.	-11	-2
24	O=C(CN1CCc2[nH]c3ccccc3c2C1)N1CCCCC1	4764	1.1	-3	.	.	-21	1
25	Cc1ccc(S(=O)(=O)NCc2ccc(C(=O)NCCCN3CCC(Cc4ccccc4)CC3)cc2)cc1	4605	0.4	12	4	8	-8	7
26	CC(C(=O)Nc1ccccc1F)N1CCN(S(=O)(=O)c2ccc(C(F)(F)F)cc2)CC1 (stereo unspecified)	.	9.0	.	2	-3	-24	6
27	COc1ccc(-c2nc3n(c2Br)CCC3)cc1	2473	-0.6	6	.	.	-41	-1
28	CCOC(=O)c1sc(NC(=O)CSc2nncn2C)nc1C	4431	2.7	3	5	4	-17	-2
29	CC(OC(=O)CNC(=O)c1ccc(Cl)c([N+](=O)[O-])c1)C(=O)NC1CCCCC1C (stereo unspecified)	4968	5.2	.	3	2	-24	3
30	CCOc1cc(-c2nc(-c3ccncc3)no2)cc(OCC)c1OCC	3159	8.1	-4	1	3	-3	1
31	O=c1c2ccccc2nc(/C=C/c2cccc(Br)c2)n1CCCO	3897	-0.5	-12	-4	-4	-14	-9
32	CCn1ncc(CNC(=O)CCSc2nc(-c3ccco3)cc(C(F)(F)F)n2)c1C	2916	-23	4	.	.	-9	1
33	CC(=O)c1ccc(S(=O)(=O)Nc2ccc(-n3cnnn3)cc2)cc1	6601	1.7	.	-1	1	-11	0
34	O=C(NCC(=O)N(c1ccc(F)cc1)C(C(=O)NC1CCCCC1)c1cccnc1)c1ccco1 (stereo unspecified)	5542	1.9	0	0	9	1	4
35	O=C(Nc1ccccc1C(=O)N1CCOCC1)c1ccc(F)cc1	3597	5.5	2	0	-5	-14	12
36	COc1cccc(C=NNC(=O)Cn2cnc3c2c(=O)n(C)c(=O)n3C)c1OC	.	3.4	.	-9	-6	.	5
37	Cc1cccc(NC(=O)CNC(=O)CN2C(=O)NC(C)(CCC(C)C)C2=O)c1C (stereo unspecified)	?	-2.0	.	0	13	1	3
38	COc1cc(C#Cc2c(-c3cncn3C)n(C)c3ccc(-c4cnc(N5CCOCC5)nc4)cc23)cc(OC)c1	2820	-4.6	.	2	8	-17	-10
39	CN1CCN(c2ccc([N+](=O)[O-])c(SCCO)c2)CC1	4470	.	-28	.	.	-17	.
40	Cc1ccc(Cl)cc1NC(=O)COC(=O)C1CCCC1	3293	3.1	-10	4	-2	-16	-5
41	Cc1cc(C=NNC(N)=O)c(C)c(CO)c1	.	-1.1	.	-9	-5	.	-2
42	CCn1c(SCC(=O)Nc2nc(C)c(C)s2)nnc1-c1cccs1	9347	43	-5	3	-4	-1	14
43	CSCC[C@H](N)C(=O)N1CCC(C(=O)N[C@H](C)C(=O)NC(C)c2ccccc2)CC1 (stereo partly specified)	5395	7.8	1	.	.	-16	-9
44	Cc1csc2ncc(C(=O)Nc3ccon3)c(=O)n12	8162	-0.5	-1	-7	-1	-16	-5
45	COCCN(C(=O)COC(=O)Cc1c[nH]c2ccccc12)c1c(N)n(Cc2ccccc2)c(=O)[nH]c1=O	.	0.3	-2	0	-3	-6	0
46	O=Cc1cn(-c2ccccc2)nc1-c1cc2cc(O)ccc2oc1=O	7751	2.5	9	-13	17	-3	-6
47	COC(=O)C1=C(C(=O)OC)[C@@H]2N(Cc3ccccc3)c3ccccc3[C@@]23C[C@@H](C(=O)OC)N(C(=O)NC(C)(C)C)C3=N1	3751	.	17	.	.	-10	.
48	O=C(CS(=O)(=O)Cc1ccccc1)NCCc1ccc(F)cc1	?	1.8	-13	-5	-2	2	-3
49	Cc1cnn(-c2nc(-c3ccccc3)cc(-c3ccccc3)n2)c1	3802	9.5	3	5	2	-12	5
50	Cc1nc(Cl)sc1C(=O)Nc1ccc(C(C)(C)C)cc1	3755	5.5	8	8	4	-39	2

The listing continues.
#	Molecule	Bead autofluor	Sa RN4220 lethal	BJeLR lethal	Mtb hypoxia rep	Mtb hypoxia rep growth	PrP 5UTR inh	ugtP null kill
51	CCOc1cccc(C=NN=Cc2cccc(OCC)c2O)c1O	.	3.1	.	10	6	.	13
52	CCOC(=O)Nc1ccc2c(CN3C(=O)NC4(CCCC4)C3=O)cc(=O)oc2c1	3498	-12	.	0	-6	-13	-6
53	COc1ccccc1Nc1nc(N2CCOCC2)nc(N2CCOCC2)n1	5700&3672	5.1&3.9	4&1	6&15	10&5	-4&7	1&11
54	CCN(CC)S(=O)(=O)c1cccc(C(=O)NCCCn2ccnc2)c1	3289	3.7	-15	-1	1	-14	4
55	Cc1ccc(SCC(=O)OCC(=O)NCCCc2ccccc2)cc1	5516	1.1	0	-3	-8	-16	1
56	Cc1cc(C)c(NC(=O)NC(=O)c2cccc(F)c2)c(C)n1	10502	2.0	1	5	-3	-47	0
57	Cc1cc(C)c2oc(C(=O)NCc3ccccc3)cc(=O)c2c1	3982	-2.2	-3	2	-1	-20	0
58	COc1ccc(NC(=O)CSc2nnc(-c3cccnc3)n2Cc2ccco2)c(OC)c1	3093	-5.6	0	-3	5	-28	-2
59	COC1=CC(=O)OC12CCCCC2	8907	2.1	2	0	-3	-15	0
60	O=C(CSc1nnc(-c2ccco2)n1CC1CCCO1)c1ccc(F)cc1 (stereo unspecified)	3586	5.6	6	13	14	-1	-13
61	Cc1cc(C)cc(NC(=O)CS(=O)(=O)c2cccc3nsnc23)c1	5220	-2.2	-16	-15	4	-6	-3
62	C=C(C)CN1C(=O)c2ccccc2C1=O	7182	1.8	-6	9	2	-15	12
63	O=C(/C=C/c1cc2c(cc1Br)OCO2)NCc1ccc(Cl)cc1	2072	2.5	-10	.	.	-6	3
64	CN(Cc1ccccc1F)c1ccc(S(=O)(=O)N2CCCC2)cn1	3177	1.2	-4	5	13	-6	5
65	COc1ccc(C(C(=O)NC2CCCC2)N(C(=O)c2ccco2)c2ccc3c(c2)OCO3)cc1OC (stereo unspecified)	2894	4.3	2	2	0	-10	1
66	COCCCNC(=S)N1CCN(C(=O)C(=O)Nc2ccc(C(=O)OC)cc2)CC1	2604	2.4	5	12	6	-16	5
67	CCOC(=O)N1CCC(Nc2ccc3nnc(-c4ccccc4)n3n2)CC1	5651	0.8	1	4	1	0	7
68	O=C(O)COc1ccccc1/C=N/NC(=O)c1cc(-c2ccc(F)cc2)nc2ccccc12	4076	.	4	.	.	-11	.
69	O=C(Nc1cccc(/C=C/c2ccccn2)c1)c1ccc(-n2cncn2)cc1	3638	4.1	.	7	2	-24	-10
70	Cn1c(=O)n(C)c2cc(/C=C(/C#N)C(=O)NCc3ccco3)ccc21	4557	3.9	-9	4	16	-23	12
71	Cc1cccc(CN2CCc3c([nH]c4ccccc34)C2CC(C)C)n1 (stereo unspecified)	3608	3.3	-1	-3	-2	-15	-5
72	CN(C)C(=O)NC(O)C(Cl)(Cl)Cl (stereo unspecified)	6192	3.1	0	0	-4	-1	1
73	Cc1cc(C(=O)N2CCC(C(=O)O)CC2)c(C)o1	.	1.4	-8	18	1	.	2
74	COC(=O)NNC(=S)Nc1cc(OC)ccc1OC	16103	0.8	3	2	5	-9	2
75	O=C(COC(=O)/C=C/c1ccc(OC(F)F)cc1)NC1CCCCCC1	3758	3.1	.	-4	7	-15	5
76	Cc1ccccc1C(=O)Nc1ccccc1C(=O)NN=Cc1ccco1	.	1.5	.	8	17	.	6
77	O=S(=O)(N=C(Nc1ccc(F)cc1F)c1ccccc1)c1ccc(Br)cc1	.	2.9	.	0	4	.	7
78	CN1CCN(c2c(/C=N/O)c3ccccc3n2C)CC1	3880	.	-14	.	.	-16	.
79	CN(CC(=O)Nn1cnnc1)S(=O)(=O)c1ccccc1	11414	1.3	2	1	1	-26	5
80	COc1ccc(C(=O)NCc2nnc(SCC(=O)c3ccc(F)cc3)n2C)cc1OC	?	0.4	1	-1	-7	-21	10
81	COc1cc(C(=O)OCC(=O)NCc2ccc(F)cc2)cc(NC(=O)c2cccs2)c1OC	2034	14	0	-1	4	-7	-26
82	O=C(Cn1cccc1C(=O)c1ccccc1)NCCCN1CCOCC1	3071	1.6	4	13	7	12	0
83	Cc1c(NC(=O)C(C)OC(=O)c2ccc(NC(=O)CC#N)cc2)c(=O)n(-c2ccccc2)n1C (stereo unspecified)	4465	2.7	-5	9	2	-9	0
84	CCOC(=O)c1cn(-c2ccccc2)nc1-c1ccncc1	?	1.8	.	4	3	-13	-20
85	O=C(NC(=S)Nc1ccc(N2CCOCC2)cc1)c1cccc([N+](=O)[O-])c1	2473	5.6	-7	6	8	-12	23
86	COc1ccc(OC)c(CNC(=O)Cc2c(C(=O)O)[nH]c3ccc(Cl)cc23)c1	4993	1.6	1	2	5	-8	1
87	CN1CCC(=C2c3ccccc3C=Cc3ccccc32)CC1	5995	1.6	-5	19	11	1	4
88	O=C(CN1CCN(c2ccc(F)cc2)CC1)Nc1ccccc1C(=O)NCCc1ccccc1	3615	-0.4	.	-3	-3	-9	-12

From no. 87 as far as 88, copied from above:
#	Molecule	Bead autofluor	Sa RN4220 lethal	BJeLR lethal	Mtb hypoxia rep	Mtb hypoxia rep growth	PrP 5UTR inh	ugtP null kill
87	CN1CCC(=C2c3ccccc3C=Cc3ccccc32)CC1	5995	1.6	-5	19	11	1	4
88	O=C(CN1CCN(c2ccc(F)cc2)CC1)Nc1ccccc1C(=O)NCCc1ccccc1	3615	-0.4	.	-3	-3	-9	-12
